Bead autofluor – flagged as autofluorescent in microsphere protease counterscreen; fluorescence intensity (concentration not given with the values); 3.1% of 360,000 active; compound autofluorescence counterscreen, microsphere flow cytometry; hits give high values;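 active = at least 3 SD above the mean of all compounds, about 16000 in these data; inconclusive = too few beads counted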;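 also: 100 nL of 1 mM stock went into each well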
Mtb hypoxia rep – PubChem AID 1159583. M. tuberculosis hypoxia-regulated fluorescent reporter, fluorescence. fluorescence inhibition, % (no concentration beside the values). 0.1% of 300,000 active;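 active = 35 to 45% if threefold the growth effect, above 45% if 1.5-fold the growth effect; inactive = the rest, general growth blockers included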;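 also: wells of about 50 µL received 100 nL stock; 0% = vehicle wells and 100% = reference inhibitor wells; whole bacteria with a GFP reporter of the hypoxia response; strong numbers were not always called active; many hits fall short of the cut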
PrP UTR inh – inhibition of PrP 5' UTR reporter expression | 0.35% of 340,000 active | cell-based PrP 5' UTR mRNA reporter, plate reader | inhibition, % (concentration not given with the values);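 active = every replicate at 50% or more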;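 also: 0 = median of the neutral control wells; tested in H4 reporter cells; numbers are from one replicate; inactives centre near -14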
BJeLR viability – MLPCN primary cell-based screen for lethality selective to Ras in HRASV12 cells. BJeLR (HRASV12) viability, CellTiter-Glo ATP luminescence, 48 h; reference of the scale not given here. inhibition, % (concentration not given with the values). 0.17% of 300,000 active;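 active = replicate mean above 50%; inconclusive = above 50% but judged a plate artefact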;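 also: 50 nL library stock added to about 25 µL; numbers are from one replicate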
RN4220 kill – growth inhibition of S. aureus RN4220, primary screen, OD600 | inhibition, % (no concentration beside the values) | 16 h | 0.33% of 330,000 active | AID 1259311, 2017;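 active = z-score of -3 or lower and OD600 up to 0.18 on both plates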;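 also: plate controls were untreated cells for no effect and reference antibiotic for full effect; stock transfer was 100 nL into about 80 µL; one replicate is shown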
ugtP null kill – growth inhibition of ugtP-null S. aureus, primary screen, RN4220 ugtP deletion, OD600; 0.54% of 330,000 active; 16 h; some inactives read as strong as hits; growth inhibition, % (no concentration beside the values);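 active = z-score under -3 and OD600 up to 0.15 on both plates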;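 also: plate controls were untreated wells for no effect and antibiotic for full effect; wells of about 80 µL received 100 nL stock; the first replicate is given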
Mtb hypoxia rep growth – recorded beside Mtb hypoxia rep, whose call it bears; growth inhibition, %; measured here: M. tuberculosis growth (absorbance);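 0% = vehicle and 100% = reference antibiotic; read after six days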
Active calls of the source: *. Outcome played no part in choosing rows; about 4% have a hit in one of these screens.

Cc1ccsc1/C=C(\C#N)C(=O)Nc1c(C)n(C)n(-c2ccccc2)c1=O was read as Bead autofluor 6719, Mtb hypoxia rep 9.9, PrP UTR inh -18.8, BJeLR viability 4.9, RN4220 kill 2.8, ugtP null kill 7.0 and Mtb hypoxia rep growth 4.7.
For N/C(=N\OC(=O)COc1ccccc1)c1ccccn1 the results were Bead autofluor 2304, Mtb hypoxia rep -0.3, PrP UTR inh -34.3, BJeLR viability -7.1, RN4220 kill 3.7, ugtP null kill 1.5 and Mtb hypoxia rep growth 8.7.
For Cc1cc2c(c(=O)n1CCN(C)C)C(c1ccc(Cl)cc1)C(C#N)=C(N)O2 (configuration not stated) the results were Bead autofluor 24829*, Mtb hypoxia rep 7.8, PrP UTR inh -8.8, BJeLR viability -2.8, RN4220 kill 1.8, ugtP null kill 1.9 and Mtb hypoxia rep growth 4.1.
`Clc1ccc(CNc2cnccn2)cc1` gave Bead autofluor 2468, Mtb hypoxia rep 8.2, PrP UTR inh -2.0, BJeLR viability 6.0, RN4220 kill -0.9, ugtP null kill 1.1 and Mtb hypoxia rep growth 0.1.
For CCc1ccc(NC(=O)Cc2cn(C)c3ccccc23)cc1 the results were Bead autofluor 4765, Mtb hypoxia rep 6.1, PrP UTR inh -12.4, BJeLR viability 2.5, RN4220 kill -3.0, ugtP null kill 3.4 and Mtb hypoxia rep growth 9.4.
`O=C(NCc1ccccn1)NC1CCCCC1` gave Bead autofluor 2485, Mtb hypoxia rep 9.0, PrP UTR inh -13.4, BJeLR viability 4.5, RN4220 kill 1.8, ugtP null kill 4.2 and Mtb hypoxia rep growth 10.5.
`COc1ccccc1NCCC(=O)OCC(=O)NCc1ccco1` gave Bead autofluor 2729, Mtb hypoxia rep 3.3, PrP UTR inh -26.8, BJeLR viability -1.6, RN4220 kill 3.4, ugtP null kill -11.1 and Mtb hypoxia rep growth -3.2.
COCCNc1c(-c2ccc(OC)cc2)nc2ccc(Cl)cn12 was read as Bead autofluor 3288, PrP UTR inh -58.2, BJeLR viability -9.9, RN4220 kill 4.8 and ugtP null kill 1.3.
`CN1/C(=C\C(=O)c2cccs2)C(C)(C)c2ccccc21` gave Bead autofluor 3404, Mtb hypoxia rep 18.0, PrP UTR inh -33.4, BJeLR viability 0.6, RN4220 kill 20.0, ugtP null kill -1.3 and Mtb hypoxia rep growth 18.7.
For CCOc1ccccc1NC(=O)CSc1c(C)n[nH]c1C the results were Bead autofluor 2870, Mtb hypoxia rep 6.8, PrP UTR inh -23.2, BJeLR viability -10.4, RN4220 kill 4.7, ugtP null kill -2.4 and Mtb hypoxia rep growth 13.4.
Cc1nc2c(c(C)c1C#N)C(=O)c1ccccc1-2 was read as Bead autofluor 2268, Mtb hypoxia rep 8.1, PrP UTR inh -15.2, BJeLR viability 5.0, RN4220 kill 4.7, ugtP null kill 4.8 and Mtb hypoxia rep growth 5.0.
For CCCCn1c(SCc2ccccn2)nc2c1c(=O)n(C)c(=O)n2C the results were Bead autofluor 3711, PrP UTR inh -4.6, BJeLR viability 3.9, RN4220 kill -3.7 and ugtP null kill 5.7.
COc1ccccc1/C=N/N=C(/N)N[N+](=O)[O-] was read as Bead autofluor 4118, PrP UTR inh -5.3 and BJeLR viability 3.5.
For Cc1ccccc1NC(=S)N(CCCN1CCC(C)CC1)Cc1ccco1 the results were Bead autofluor 7806, Mtb hypoxia rep 6.0, PrP UTR inh -16.9, BJeLR viability 4.6, RN4220 kill 5.9, ugtP null kill -3.0 and Mtb hypoxia rep growth 3.6.
For Cc1c(NC(=O)c2ccc(N3CCCC3)c([N+](=O)[O-])c2)cccc1-c1nc2ccccc2s1 the results were Bead autofluor 12162, Mtb hypoxia rep 0.9, PrP UTR inh -33.5, BJeLR viability -0.2, RN4220 kill 3.0, ugtP null kill -5.1 and Mtb hypoxia rep growth 2.2.
`CCC(CC)c1nnc(NC(=O)c2ccco2)s1` gave Bead autofluor 3145, Mtb hypoxia rep 2.8, PrP UTR inh -3.2, BJeLR viability -4.1, RN4220 kill 3.2, ugtP null kill -0.6 and Mtb hypoxia rep growth 17.7.
`CCOC(=O)c1ccc(NC(=O)Nc2ccccn2)cc1` gave Bead autofluor 2388, Mtb hypoxia rep 1.6, PrP UTR inh -13.1, BJeLR viability -0.4, RN4220 kill 0.4, ugtP null kill -11.9 and Mtb hypoxia rep growth -9.8.
`COc1ccc(CNC(=O)C(c2ccncc2)N(C(=O)Cc2cccs2)c2ccccc2)cc1` (configuration not stated) gave Bead autofluor 2658, Mtb hypoxia rep 7.6, PrP UTR inh -12.6, RN4220 kill -1.3, ugtP null kill -1.7 and Mtb hypoxia rep growth 10.6.
Screening CCOCCCNC(=O)c1ccc(N2CCCC2)c(NS(=O)(=O)c2ccc(C)cc2)c1 returned Bead autofluor 4213, Mtb hypoxia rep 6.9, PrP UTR inh -38.9, BJeLR viability 2.4, RN4220 kill -1.8, ugtP null kill 8.1 and Mtb hypoxia rep growth 8.4.
`Cc1cc(=O)oc2cc(OCC(=O)Nc3cccc(S(=O)(=O)N(C)C)c3)ccc12` gave Bead autofluor 2256, PrP UTR inh -5.2 and BJeLR viability -17.6.
N#Cc1c(Nc2ccc(F)cc2)sc(C(=O)c2ccccc2)c1N was read as Bead autofluor 2515, Mtb hypoxia rep 1.9, PrP UTR inh 8.2, BJeLR viability 2.7, RN4220 kill 6.2, ugtP null kill -11.9 and Mtb hypoxia rep growth -2.0.
For CC1CCc2nc(NC(=O)CN3CCOCC3)sc2C1 (configuration not stated) the results were Bead autofluor 4856, PrP UTR inh -39.6, BJeLR viability 0.8, RN4220 kill -2.8 and ugtP null kill -6.0.
For COc1ccccc1CNC(=O)[C@H](C)NC(=O)C1CCN(C(=O)[C@@H](N)CC(C)C)CC1 the results were Bead autofluor 5311, PrP UTR inh -5.4 and BJeLR viability 5.9.
For C[C@H](CO)N1C[C@H](C)[C@@H](CN(C)C(=O)Nc2ccccc2)Oc2c(NC(=O)Cc3ccccc3)cccc2C1=O the results were Bead autofluor 4379, Mtb hypoxia rep 11.0, PrP UTR inh -23.0, RN4220 kill -17.6, ugtP null kill -3.4 and Mtb hypoxia rep growth 14.1.
O=C(/C=C/c1ccccc1Cl)NC1CCCCC1 was read as Mtb hypoxia rep -1.7, PrP UTR inh -42.8, BJeLR viability -1.4, RN4220 kill 4.3, ugtP null kill -4.3 and Mtb hypoxia rep growth 3.5.
`Cc1c(NC(=O)c2cc(-c3ccco3)on2)c(=O)n(-c2ccccc2)n1C` gave Bead autofluor 15129, Mtb hypoxia rep 5.8, PrP UTR inh -12.1, RN4220 kill 0.2, ugtP null kill 8.6 and Mtb hypoxia rep growth 1.9.
`COc1cccc(CCNC(=O)c2ccc(C#N)cc2)c1` gave Bead autofluor 2538, Mtb hypoxia rep 5.6, PrP UTR inh -32.8, BJeLR viability -8.3, RN4220 kill -0.1, ugtP null kill 12.2 and Mtb hypoxia rep growth 12.4.
`Cc1ccc2nc(N(CCN(C)C)C(=O)/C=C/c3cccs3)sc2c1` gave Bead autofluor 2059, Mtb hypoxia rep 6.7, PrP UTR inh 9.5, BJeLR viability -2.2, RN4220 kill -4.1, ugtP null kill -12.4 and Mtb hypoxia rep growth 3.3.
For COCCSc1nnc(NC(=O)C2CC(=O)N(c3ccc(C)cc3)C2)s1 (configuration not stated) the results were Bead autofluor 3342, Mtb hypoxia rep 9.2, PrP UTR inh -24.0, BJeLR viability 9.1, RN4220 kill -5.0, ugtP null kill 5.4 and Mtb hypoxia rep growth 15.3.
For Cc1nnn(C23CC4CC(CC(CC(=O)Nc5cccc(F)c5)(C4)C2)C3)n1 the results were Bead autofluor 4770, Mtb hypoxia rep 9.4, PrP UTR inh 10.5, BJeLR viability 2.8, RN4220 kill 4.3, ugtP null kill 0.0 and Mtb hypoxia rep growth -0.7.
`CCC(CC)COC(=O)C(C#N)c1nc2ccccc2nc1N1CCOCC1` (configuration not stated) gave Bead autofluor 15826, Mtb hypoxia rep 4.6, PrP UTR inh -14.3, BJeLR viability 2.8, RN4220 kill 7.7, ugtP null kill 0.4 and Mtb hypoxia rep growth 0.9.
Screening Cc1cc(NC(=O)C(C)SCC(=O)Nc2ccc(Br)cc2Br)no1 (configuration not stated) returned Bead autofluor inconclusive, Mtb hypoxia rep 6.4, PrP UTR inh -9.1, BJeLR viability 4.3, RN4220 kill 8.8, ugtP null kill 9.2 and Mtb hypoxia rep growth -2.5.
For Cn1c(-c2ccc(-c3ccccc3)cc2)c[nH]c1=S the results were Bead autofluor 3391, Mtb hypoxia rep 4.9, PrP UTR inh -55.5, BJeLR viability 5.1, RN4220 kill 10.1, ugtP null kill -4.4 and Mtb hypoxia rep growth 3.3.
`O=C(/C=C\c1ccc2c(c1)OCO2)NC1(C(=O)Nc2ccc3c(c2)OCCO3)CCCCC1` gave Bead autofluor 8615, Mtb hypoxia rep -8.5, PrP UTR inh -34.2, BJeLR viability -1.3, RN4220 kill -2.1, ugtP null kill -2.3 and Mtb hypoxia rep growth -1.7.
CCOc1ccc(NC(=O)CN(C)C(=O)c2ccccc2Cc2ccccc2)cc1OCC was read as Bead autofluor 3480, Mtb hypoxia rep 6.3, PrP UTR inh -50.1, RN4220 kill 4.2, ugtP null kill 4.1 and Mtb hypoxia rep growth 5.3.
O=C(Nc1ccccc1Cl)c1cc[n+](Cc2ccc([N+](=O)[O-])cc2)cc1 was read as Bead autofluor 3106, Mtb hypoxia rep -3.9, PrP UTR inh -6.5, BJeLR viability 4.9, RN4220 kill 9.9, ugtP null kill 4.0 and Mtb hypoxia rep growth -2.0.
Cc1cccc(OCCC(=O)Nc2ccc(C)c(S(=O)(=O)N3CCCCC3)c2)c1 was read as Bead autofluor 2562, PrP UTR inh 0.5, BJeLR viability -13.2, RN4220 kill 1.8 and ugtP null kill -27.4.
For COc1ccc(CC(C)CC(=O)Nc2ccc(OC)cc2)cc1 (configuration not stated) the results were Bead autofluor 3280, Mtb hypoxia rep 0.7, PrP UTR inh -23.6, BJeLR viability -0.5, RN4220 kill -0.2, ugtP null kill 3.3 and Mtb hypoxia rep growth -2.5.
O=C(N/N=C/c1ccc(N2CCOCC2)s1)c1ccccc1Cl was read as Bead autofluor 2156, PrP UTR inh -21.1 and BJeLR viability -5.1.
Screening CCOC(=O)c1sc(N=Nc2c(O)[nH]c(=O)[nH]c2=O)c(C(=O)OCC)c1C returned Mtb hypoxia rep -1.0, BJeLR viability -6.2, RN4220 kill 5.6, ugtP null kill 7.0 and Mtb hypoxia rep growth -2.7.
`CCN(CC)C(=O)C(=O)c1cccn1-c1cccc(Cl)c1C#N` gave Bead autofluor 2925, PrP UTR inh -12.1, BJeLR viability -2.1, RN4220 kill 3.1 and ugtP null kill 10.7.
`CCC1CCCN1Cn1cnc2c([nH]c3ccc(OC)cc32)c1=O` (configuration not stated) gave Bead autofluor 3993, Mtb hypoxia rep 9.7, PrP UTR inh -26.6, BJeLR viability 2.2, RN4220 kill 6.3, ugtP null kill -2.1 and Mtb hypoxia rep growth 2.3.
`Cc1ccc(CN2C(=O)N/C(=C\c3ccc(N4CCOCC4)cc3)C2=O)cc1` gave Bead autofluor 4012, Mtb hypoxia rep -17.0, PrP UTR inh -9.3, BJeLR viability -1.5, RN4220 kill 1.2, ugtP null kill -10.9 and Mtb hypoxia rep growth -6.2.
Screening CN(C)C1(CNC(=O)C2CCN(S(=O)(=O)c3cccc(C(F)(F)F)c3)CC2)CCCCC1 returned Bead autofluor 5237, Mtb hypoxia rep 10.7, PrP UTR inh 0.0, BJeLR viability 0.6, RN4220 kill 1.5, ugtP null kill 15.6 and Mtb hypoxia rep growth -7.3.
For COc1cc(C=Nn2cnnc2-n2nc(C)cc2C)cc([N+](=O)[O-])c1O the results were Mtb hypoxia rep 1.5, RN4220 kill 5.1, ugtP null kill 8.3 and Mtb hypoxia rep growth 6.9.

Ordered by formula weight (rising): 3 of the compounds above
`CCC1CCCN1Cn1cnc2c([nH]c3ccc(OC)cc32)c1=O` (configuration not stated) gave Bead autofluor 3993, Mtb hypoxia rep 9.7, PrP UTR inh -26.6, BJeLR viability 2.2, RN4220 kill 6.3, ugtP null kill -2.1 and Mtb hypoxia rep growth 2.3.
For COc1cc(C=Nn2cnnc2-n2nc(C)cc2C)cc([N+](=O)[O-])c1O the results were Mtb hypoxia rep 1.5, RN4220 kill 5.1, ugtP null kill 8.3 and Mtb hypoxia rep growth 6.9.
Screening CCOC(=O)c1sc(N=Nc2c(O)[nH]c(=O)[nH]c2=O)c(C(=O)OCC)c1C returned Mtb hypoxia rep -1.0, BJeLR viability -6.2, RN4220 kill 5.6, ugtP null kill 7.0 and Mtb hypoxia rep growth -2.7.

Assay outcomes deposited in PubChem by several laboratories.
